# LANA-H2B inh = blocks KSHV LANA binding to histone H2A/H2B. Q9QR71. 320,000 tested, 0.6% active. cell-free LANA-H2A/H2B peptide, fluorescence polarization. inhibition, % (concentration not given with the values); in the data active = inhibition mostly above about 10%, no sharp cut-off; inactive = mostly below about 6.7%;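 note: stock transfer was 7.5 nL into about 10 µL; 0% = median of vehicle wells and 100% = median of positive control wells; one replicate is shown; the record names a cut of 25% in any replicate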
# A1 inh = inhibitors of the anti-apoptotic protein A1, read as caspase activation. MEF A1-2A-BIM cells, Caspase-Glo 3/7 luminescence, 3 h; percent of clofoctol response, vehicle zero. caspase activation, % (test concentration not listed). 330,000 tested, 0.066% active. AID 2462;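 active = over half of replicate activation scores above 10%, or exactly half above 10 with the replicate mean above 10; inconclusive = replicate mean below 10 yet half the replicates above 10; inactive = over half of replicates below 10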;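 note: wells of about 30 µL received 50 nL stock; many hits fall short of the cut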
# HNF4A DNA FP = change in binding of human HNF4 alpha to DNA; P41235; HNF4a-FITC DNA binding, fluorescence polarization, 1 h; activity change, % at 10 µM; 360,000 tested, 0.3% active; in the data active = activity change above about 30%, passing the limit was not always enough;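 note: controls were the assay level and a saturating level of protein; the project sought stronger binding though the title names inhibitors; some compounds called inactive have numbers as strong as hits; positive values seem to mean higher polarization but the record does not say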
# E coli growth = inhibitors of Escherichia coli growth; OD600, 23 h; hits give low values; 330,000 tested, 0.21% active; AID 1053175; OD600 absorbance (no concentration beside the values);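 active = OD600 absorbance below the run mean of sample wells minus 3.6 SD, in any replicate, cut at about 0.56 in these data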;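 note: stock transfer was 300 nL into about 60 µL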
# Beta2AR agonist = activates human beta-2 adrenergic receptor causing internalization. P07550. Am2.2-beta2AR cells, FAP receptor internalization, flow cytometry; reference of the scale not given here. response, % (test concentration not listed). 340,000 tested, 0.43% active. AID 504454;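 active = response above a set limit, near 3 SD of response in nonfluorescent compounds, cut at about 42% in these data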;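 note: stock transfer was 100 nL into about 11 µL; a reference agonist was the positive control; negative values mostly stem from fluorescent compounds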
# Target sequence (P07550 whole entry, looked up): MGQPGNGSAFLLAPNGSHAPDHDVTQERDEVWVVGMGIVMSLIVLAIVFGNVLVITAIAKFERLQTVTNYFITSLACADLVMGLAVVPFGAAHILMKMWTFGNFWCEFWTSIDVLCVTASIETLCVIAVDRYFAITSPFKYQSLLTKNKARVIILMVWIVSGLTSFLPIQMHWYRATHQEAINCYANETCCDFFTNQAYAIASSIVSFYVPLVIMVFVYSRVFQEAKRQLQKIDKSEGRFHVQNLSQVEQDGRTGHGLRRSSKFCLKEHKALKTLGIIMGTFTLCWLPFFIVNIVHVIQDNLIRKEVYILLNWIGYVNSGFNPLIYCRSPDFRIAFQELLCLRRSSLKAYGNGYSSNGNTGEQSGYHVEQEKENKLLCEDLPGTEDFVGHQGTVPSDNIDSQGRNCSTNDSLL
# UCH37 inh = inhibitors of human deubiquitinating enzyme UCH37 | 330,000 tested, 0.33% active | inhibition, % (test concentration not listed) | purified proteasome/UCH37, Ub-AMC cleavage fluorescence | Q9Y5K5;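 active = mean of two replicates above 20%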;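 note: 0% = compound-free wells with enzyme and 100% = wells lacking proteasome; stock transfer was 100 nL into about 20 µL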
# Target sequence (Q9Y5K5 whole entry, looked up): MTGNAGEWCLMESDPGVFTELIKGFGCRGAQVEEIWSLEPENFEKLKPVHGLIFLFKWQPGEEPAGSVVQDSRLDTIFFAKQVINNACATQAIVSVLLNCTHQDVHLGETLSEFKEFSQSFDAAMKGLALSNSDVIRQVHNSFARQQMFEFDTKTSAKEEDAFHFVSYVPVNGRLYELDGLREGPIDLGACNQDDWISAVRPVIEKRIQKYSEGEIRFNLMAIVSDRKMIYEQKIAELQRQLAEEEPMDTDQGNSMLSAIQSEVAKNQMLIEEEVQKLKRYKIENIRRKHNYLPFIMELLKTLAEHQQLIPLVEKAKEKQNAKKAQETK
#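 Material: human UCH37 enzyme supplied as purified proteasome complex / Amount: 0.15 nM proteasome as dispensed / Buffer or medium: pH 7.4 Tris-HCl (50 mM) with ovalbumin, ATP-MgCl2, DTT / Times: preincubation 30 min, reaction 25 min, room temperature / Technique: AMC fluorescence from Ub-AMC cleavage, excitation 355 nm, emission 460 nm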
# Vif A3G = HIV-1 Vif–A3G interaction blockers – biochemical, TR-FRET, GST-Vif 1-94, biotin-A3G peptide, dose response retest, primary screen (AID 1117319); 260,000 tested, 0.57% active; inhibition, %; hits with a dose series show IC50 in µM; TR-FRET GST-Vif / biotin-A3G peptide binding; higher % means a stronger effect; test concentration not given here; strong numbers were not always called active;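 active = above the screen mean plus three standard deviations and confirmed in dose response; inconclusive = results disagree or hit not tested in dose response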;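 note: Vif residues 1-94 fused to GST binding biotinylated APOBEC3G peptide 110-148; 0% = full assay without inhibitor and 100% = GST in place of GST-Vif; retest series ran down from 100 µM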
# An asterisk follows results filed as active; ? = inconclusive; nt = no result given; & = joins results of further samples.
(1) Cc1c(C(=O)Nc2ccc(F)cc2)nnn1-c1cccc(C(F)(F)F)c1
(2) COc1ccc(N2CCN(c3oc(COc4ccc(Cl)cc4Cl)nc3C#N)CC2)cc1
(3) CC(=O)N1CCc2cc(S(=O)(=O)NCCC(=O)NC3CCCCCC3)ccc21
(4) Cn1c(=O)c2c(nc(N/N=C/c3ccc(OC(=O)c4ccco4)cc3)n2Cc2ccccc2Cl)n(C)c1=O
(5) O=C(N/N=C1/CC2C=CCC12)c1ccco1 (stereo unspecified)
(6) CCC(CC)C(=O)Nc1cccc(SC)c1
(7) O=C(c1ccc(-c2cccc(C(F)(F)F)c2)o1)N1CCN(c2ccccc2O)CC1
(8) O=C(Nc1cc(Cl)ccc1O)c1cc2n(n1)C(C(F)(F)F)CC(c1ccc3c(c1)OCO3)N2 (stereo unspecified)

assay / entry	1	2	3	4	5	6	7	8
LANA-H2B inh	0.9	-0.4	0.9	2.4	2.4	-3.9	1.7	-1.0
A1 inh	0.9	-0.4	-1.3	0.3	-0.1	0.4	-0.8	-0.7
HNF4A DNA FP	0.8	-3.2	-1.7	1.8	0.4	nt	-3.7	1.6
E coli growth	0.73	0.73	0.73	nt	nt	0.68	0.7	0.78
Beta2AR agonist	3	3	-8	5	3	nt	-4	11
UCH37 inh	3.1	3.0	-1.7	nt	nt	2.8	1.1	5.1
Vif A3G	3%	68%	nt	17%	nt	nt	nt	-1%&-10%

(9) CCc1nc2ccc(C(=O)NCCc3ccccc3OC)cc2nc1CC
(10) COc1ccc(C2Nc3ccccc3C(=O)N2c2ccc(C)cc2)cc1Cn1cc([N+](=O)[O-])cn1 (stereo unspecified)
(11) O=C(O)c1ccccc1NS(=O)(=O)c1ccc2c3c(cccc13)C(=O)N2
(12) CCCCn1c(NCCN(C)C)nc2c1c(=O)[nH]c(=O)n2C
(13) COc1ccccc1N1CCN(CC(=O)Nc2cc(C)nn2-c2nc(C)cc(C)n2)CC1
(14) O=C(NC(C(=O)c1ccccc1)N1CCOCC1)c1ccccc1 (stereo unspecified)
(15) COc1ccccc1CN1CC(C(=O)N2CCC(C(=O)c3ccccc3)CC2)CCC1=O (stereo unspecified)
(16) COc1cccc(C2CC(c3cccc(OC)c3)n3nc(N)nc3N2)c1 (stereo unspecified)

assay / entry	9	10	11	12	13	14	15	16
LANA-H2B inh	-5.5	-7.2	5.6	1.1	nt	-0.3	-3.5	3.7
A1 inh	1.1	0.0	-0.5	2.2	nt	-0.4	-0.1	0.0
HNF4A DNA FP	0.5	0.3	0.1	-1.5	11	0.1	1.1	-0.4
E coli growth	0.7	0.7	0.71	0.69	0.7	0.68	0.72	0.7
Beta2AR agonist	nt	14	1	6	-14	7	-1	4
UCH37 inh	4.5	-2.9	5.2	0.7	5.1	3.8	2.0	2.2
Vif A3G	-10%	-1%	-1%	-3%	nt	26%	4%	-4%

(17) Cc1cccc(NCc2nnc(-c3ccccc3)o2)c1C
(18) CC(C)C[C@@H](CNCC(=O)[C@H](CC(=O)O)NC(=O)c1[nH]cnc1C(=O)N[C@H](CN)CC(C)C)NC(=O)c1nc[nH]c1C(=O)N[C@@H](Cc1ccccc1)C(=O)O
(19) Cc1ccc(-c2nnc(CSc3nnc(COc4ccccc4)n3-c3ccccc3)o2)cc1
(20) Cc1ccc(NC(=O)Cc2nc(COC(=O)c3c(F)cccc3Cl)cs2)cc1
(21) O=C(COC(=O)c1cccnc1)Nc1ccc2c(c1)OCO2
(22) Cn1c(N)c(-c2ccccc2)c2ccc([N+](=O)[O-])cc2c1=O
(23) CCCCOC(=O)c1ccc(N/C(=N\S(=O)(=O)c2ccccc2)c2ccccc2)cc1
(24) Cc1ccc(S(=O)(=O)N2CCOCC2)cc1NC(=O)CSc1ccccn1

assay / entry	17	18	19	20	21	22	23	24
LANA-H2B inh	6.2	nt	1.8	4.0	-1.9	0.1	0.9	3.8
A1 inh	-0.7	nt	-3.4	-0.1	-0.2	0.9	0.1	-0.2
HNF4A DNA FP	3.1	-1.2	-0.2	0.8	1.0	99*	1.2	-1.9
E coli growth	0.68	nt	0.7	0.65	0.71	0.68	nt	0.7
Beta2AR agonist	-5	-5	-12	-3	0	14	0	3
UCH37 inh	-165	nt	0.0	0.9	6.5	4.4	nt	2.2
Vif A3G	-9%	-13%	3%	nt	22%	nt	4%	-8%

(25) CCC(C)[C@@H](C(=O)NCC1CCC(C(=O)O)CC1)n1nnc2ccccc2c1=O (stereo partly specified)
(26) COc1cccc(OC)c1C(=O)Nc1ccc(S(=O)(=O)Nc2cc(C)nc(C)n2)cc1
(27) COc1ccccc1-c1cc(C(=O)Nc2cc(C)on2)no1
(28) COc1cc(CNCc2cccc3ccccc23)cc(OC)c1
(29) CCSc1ccccc1C(=O)Nc1nc2ccccc2c(=O)[nH]1
(30) COc1ccccc1/C=C1\SC(=S)N(Nc2nc(C)cc(C)n2)C1=O
(31) CCCCn1c(N)c(N(Cc2ccccc2OC)C(=O)C(C)Oc2ccc(Br)cc2)c(=O)[nH]c1=O (stereo unspecified)
(32) Cc1c(N2C(=O)c3ccccc3C2=O)c(=O)n(-c2ccccc2)n1C

assay / entry	25	26	27	28	29	30	31	32
LANA-H2B inh	0.0	8.1	3.7	-4.3	-1.5	0.3	nt	1.2
A1 inh	3.3	0.3	-0.6	0.9	0.8	-1.6	nt	1.6
HNF4A DNA FP	-0.9	-1.3	-1.9	-1.4	2.3	1.5	2.3	3.2
E coli growth	0.68	0.75	0.76	0.65	0.73	0.76	0.73	0.71
Beta2AR agonist	-4	-2	2	0	-1	-5	-4	-3
UCH37 inh	-0.5	0.9	2.7	1.9	0.6	6.8	-3.1	-1.6
Vif A3G	2%	9%	-2%	nt	12%	2%	nt	?

# Quoted at random: seven entries already listed, in no set order.
(29) CCSc1ccccc1C(=O)Nc1nc2ccccc2c(=O)[nH]1
(3) CC(=O)N1CCc2cc(S(=O)(=O)NCCC(=O)NC3CCCCCC3)ccc21
(23) CCCCOC(=O)c1ccc(N/C(=N\S(=O)(=O)c2ccccc2)c2ccccc2)cc1
(1) Cc1c(C(=O)Nc2ccc(F)cc2)nnn1-c1cccc(C(F)(F)F)c1
(18) CC(C)C[C@@H](CNCC(=O)[C@H](CC(=O)O)NC(=O)c1[nH]cnc1C(=O)N[C@H](CN)CC(C)C)NC(=O)c1nc[nH]c1C(=O)N[C@@H](Cc1ccccc1)C(=O)O
(10) COc1ccc(C2Nc3ccccc3C(=O)N2c2ccc(C)cc2)cc1Cn1cc([N+](=O)[O-])cn1 (stereo unspecified)
(31) CCCCn1c(N)c(N(Cc2ccccc2OC)C(=O)C(C)Oc2ccc(Br)cc2)c(=O)[nH]c1=O (stereo unspecified)

assay / entry	29	3	23	1	18	10	31
LANA-H2B inh	-1.5	0.9	0.9	0.9	nt	-7.2	nt
A1 inh	0.8	-1.3	0.1	0.9	nt	0.0	nt
HNF4A DNA FP	2.3	-1.7	1.2	0.8	-1.2	0.3	2.3
E coli growth	0.73	0.73	nt	0.73	nt	0.7	0.73
Beta2AR agonist	-1	-8	0	3	-5	14	-4
UCH37 inh	0.6	-1.7	nt	3.1	nt	-2.9	-3.1
Vif A3G	12%	nt	4%	3%	-13%	-1%	nt

# Going on with the list.
(33) OCCNc1nc2ccccc2[nH]1
(34) CC(C)OC(=O)CSc1nnc(CNc2cccc(Cl)c2)n1C
(35) Cc1ccc(NC(=O)CCNC(=O)c2ccccc2Cl)nc1
(36) C=CCN=C1CC(C)(C)C(C(=O)OC)C(O)=C1C(=O)CCC (stereo unspecified)
(37) CC(=O)/C(=C\N(C)C)Sc1ccc(C)cc1
(38) CCCCC(CCCCl)C(=O)Nc1ccccc1 (stereo unspecified)
(39) CC(C)N(CCn1c(SCC(=O)N2CC(=O)Nc3ccccc32)nc2ccccc2c1=O)C(C)C
(40) CCN1C(=O)[C@H]2[C@@H](c3ccc(C)cc3)N3C(=O)N(c4ccc(C(F)(F)F)cc4)C(=O)[C@@]3(CC)[C@H]2C1=O

assay / entry	33	34	35	36	37	38	39	40
LANA-H2B inh	-2.4	5.1	4.6	11	-3.2	-1.3	1.1	0.3
A1 inh	0.2	1.4	-1.5	0.1	0.6	0.3	-0.7	-0.2
HNF4A DNA FP	-3.0	0.4	-1.4	2.2	-0.9	0.8	-1.0	4.4
E coli growth	0.73	0.68	0.68	0.7	0.66	0.69	0.71	nt
Beta2AR agonist	-4	9	-5	-8	0	-6	7	-4
UCH37 inh	0.3	-0.5	0.6	3.2	1.6	1.4	7.8	4.9
Vif A3G	32%	22%	2%	14%	-3%	nt	-4%	nt

(41) CCN1C[C@@H]2[C@@H]3C(=O)N(Cc4ccccc4)C(=O)[C@@H]3[C@](C)(C1=O)N2C(=O)c1ccc(F)cc1
(42) O=C(Nc1cccc(Cl)c1Cl)c1cc(S(=O)(=O)NCCc2ccccc2)ccc1F
(43) Cc1cc(C)cc(NC(=S)N(C)C)c1
(44) N#Cc1ccc(-c2csc(NNC(=O)c3ccccc3)n2)cc1
(45) CC(=O)c1ccc(N2CCN(C(=O)C(=O)c3cn(CC(=O)N4CCCCCC4)c4ccccc34)CC2)cc1
(46) O=C(CN1CCCC1c1cccs1)Nc1cccc(S(=O)(=O)N2CCCC2)c1 (stereo unspecified)
(47) COc1ccc(NC(=O)COc2ccc(C(=O)NCc3cccnc3)cc2OC)cc1
(48) Cc1ccc(NC(=O)C2CCN(C(=O)NC3CCCCC3)CC2)cc1Cl

assay / entry	41	42	43	44	45	46	47	48
LANA-H2B inh	nt	-2.2	-1.7	0.7	2.3	0.7	-2.5	-3.0
A1 inh	nt	0.0	0.4	1.0	-0.3	1.1	-0.2	0.8
HNF4A DNA FP	-1.3	1.8	4.1	0.2	-2.8	2.7	4.3	-4.2
E coli growth	nt	0.69	0.68	0.78	0.73	0.66	0.66	0.72
Beta2AR agonist	7	3	1	0	13	-5	16	5
UCH37 inh	2.5	2.5	4.6	3.0	5.8	0.3	0.8	5.1
Vif A3G	nt	-8%	-13%	0%	nt	-3%	-8%	-2%

(49) CCCC(=O)NC(c1ccccc1)c1ccc2cccnc2c1O (stereo unspecified)
(50) CCN(Cc1ccccc1)C(=O)c1cc2cc(OC)c(OC)cc2[nH]1
(51) COCCNC(=O)/C(=C/c1ccccc1Cl)c1ccccc1
(52) Cc1nc(NC(=O)C2CC2)sc1C(=O)NC1CCCCC1
(53) COC(=O)C(=C/C=C/c1cccnc1)C(=O)OC
(54) Cc1onc(-c2ccccc2)c1C(=O)OCC(=O)N(C)c1c(N)n(Cc2ccccc2)c(=O)[nH]c1=O
(55) COc1ccc(OCC(O)CN2CCC(CN3C(=O)c4cccc5cccc(c45)C3=O)CC2)cc1 (stereo unspecified)
(56) Cc1ccc[n+](C(C)C(=O)c2ccc(Cl)cc2)c1 (stereo unspecified)
(57) Nc1nonc1-n1nnc(C(=O)c2ccccc2)c1-c1ccccc1

assay / entry	49	50	51	52	53	54	55	56	57
LANA-H2B inh	1.1	-2.5	2.0	3.8	-0.6	-3.3	-15	1.6	1.2
A1 inh	-1.0	0.4	-0.1	0.8	-0.6	-0.6	1.1	0.4	1.2
HNF4A DNA FP	1.0	-5.9	0.2	-0.9	-0.5	0.3	-4.2	2.6	-0.1
E coli growth	nt	0.7	0.67	0.68	0.64	0.68	0.68	0.71	0.74
Beta2AR agonist	7	-3	15	-13	11	-4	14	-9	-3
UCH37 inh	nt	-13	1.4	4.0	3.6	3.3	-38	-1.3	2.2
Vif A3G	11%	-3%	6%	19%	nt	-2%	nt	nt	2%

# From PubChem BioAssay
